Screens as filed in PubChem.
RE007 growth inh = qHTS Assay for Inhibitors of the HIV-1 protein Vpr; actives 0.21% (n = 360,000); Potency, µM (doses to about 92.2 µM), inactives show top-dose activity change, negative = less growth; S. pombe RE007 Vpr strain, BacTiter-Glo ATP luminescence, 24 h; control for the full effect not named in the record; active = well fitted falling curve with a large enough effect; inconclusive = small, poorly fitted or top-dose-only effect; inactive = no such curve, though single readings can be large or run the other way;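 note: nearly all actives have a fitted effect of over 50% in size; the assay follows cell death caused by Vpr and the record does not say whether a fall means rescue or toxicity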
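Fission yeast strain RE007, carrying one chromosomally integrated HIV-1 vpr copy, was seeded at OD 0.01 in PMG+AL medium with 23 nL pinned compound. After 24 h at 30 °C and 99% humidity, viability was read by BacTiter-Glo luminescence.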
2A StopGo = High Throughput Screening for Foot and Mouth Disease Virus Antivirals. actives 1.2% (n = 410,000). Potency, µM (series often up to 57.9 µM), inactives show at the highest dose signal change, negative = less light. human cells with a luciferase reporter of 2A StopGo recoding; control for the full effect not named in the record; active = well fitted falling curve with a large enough effect; inconclusive = small, poorly fitted or top-dose-only effect; inactive = no such curve, though single readings can be large or run the other way; tested in HEK293T cells; note: nearly all actives have a fitted effect of over 45% in size; luciferase light after 4 h
The depositor's hits bear a star; ? = inconclusive; [ ] = dose if it differs, or a comment. % is set by controls: 0 for no effect and ±100 for the full control effect; potency is the fitted concentration of half-maximal effect. This is a subset (hit frequency here may not be typical).

SMILES | RE007 growth inh | 2A StopGo
CCN(C(=O)CSc1nnc(-c2ccccc2Cl)n1N)c1c(N)n(Cc2ccccc2)c(=O)[nH]c1=O | -8% | 0%
Cc1onc(-c2ccccc2)c1C(=O)N[C@@H]1C(=O)N2C1SC(C)(C)[C@@H]2C(=O)O (stereo partly drawn) | -18% | -16%
O=C(CSc1ncccn1)NNC(=O)c1ccccc1 | 7% | -3%
CC(C)CN1C(=O)CSCC1(C)C(=O)NCc1ccccc1 (stereo not drawn) | 0% | -14%
CC1CC2(CC(CN(C3CCCCC3)C3CCCCC3)OC2=O)C(=O)O1 (stereo not drawn) | -5% | -23%
COc1ccc(-c2csc(C(NC(C)=O)c3ccccc3)n2)cn1 (stereo not drawn) | 12%[18.4 µM] | 7%
Cc1ccc(CN2CCC[C@]3(N[C@H](c4ccccc4)[C@@H]4C(=O)N(Cc5ccccc5)C(=O)[C@@H]43)C2=O)cc1 | 7% | -15%
COc1ccc2[nH]c(=O)c(-c3nnn(-c4ccc(Cl)nc4)n3)cc2c1 | 5% | 10%
CCCCN(C(C)=O)c1c(CC)nc2ccc(C(=O)NCCCN(C)C)cn12 | 6%[18.4 µM] | -3%
O=C(Cc1ccccc1)NS(=O)(=O)c1ccccc1 | 10% | 5%
CCOC(=O)C1CCCN(C(=O)c2cc(F)cc(F)c2)CC1 (stereo not drawn) | 7% | -14%
Cc1ccc(S(=O)(=O)N2C[C@H]3C(=O)C[C@@H](c4ccccc4F)N(S(=O)(=O)c4ccc(C)cc4)[C@H]3C[C@H]2c2ccccc2F)cc1 | 5% | 7%
CCCS(=O)(=O)NC(=O)C1(C)CCCN(C(=O)c2cc(-c3cccs3)oc2C)C1 (stereo not drawn) | 5% | 1%
Cc1ccc([C@@H]2CC(=O)[C@@H]3CN(S(=O)(=O)c4ccc(C)cc4)[C@H](c4ccccc4F)C[C@@H]3N2S(=O)(=O)c2ccc(C)cc2)cc1 | -22% | -4%
CCNC(=O)C1CCCN(C(=O)c2ccccc2)CC1 (stereo not drawn) | -1% | -13%
CSc1ncnc2c1ncn2CCCNCC1CCCO1 (stereo not drawn) | -26% | -22%
CN(C)C(=O)C1=NOC2(C1)C(=O)Nc1ccccc12 (stereo not drawn) | 9% | -17%
COC(=O)c1ccc2nc(-c3ccc(C)cc3)c(Cc3ccccc3OC)n2c1 | -3% | 15%
CSc1ccc(CN2CCC(N3CCC(C(=O)NC4CC4)CC3)CC2)cc1 | 3% | -1%
CCc1ncc(C(O)c2ccc(Cl)cc2)n1Cc1ccccc1 (stereo not drawn) | -7% | ?
COc1ccc(OCCCC(=O)OCC(=O)N2CCN(S(=O)(=O)c3ccc(C)cc3C)CC2)cc1 | -8% | -3%
CCCCn1nnnc1C(c1cc2ccccc2o1)N1CCN(c2ncccc2C#N)CC1 (stereo not drawn) | 3% | -8%
COc1cc(OC)cc(C(=O)N2CCN(S(=O)(=O)c3ccc4c(c3)OCCO4)CC2)c1 | 4% | -20%
CC(=O)N1CCc2nc3ccccc3cc21 | -18% | 0%
CC(C)C[C@H]1CN(CCCC[C@H]2CNC(=O)C(=O)N2CCc2ccccc2)C(=O)C(=O)N1CC1CCCCC1 | -6% | -14%
(list continues)
SMILES | RE007 growth inh | 2A StopGo
Cn1c(=O)c2cc(NC(=O)NCc3ccc(Cl)cc3Cl)ccc2n1Cc1ccccc1 | 3%[18.4 µM] | -24%
CCNC(=O)C1(C)CCN(C(=O)c2c(-c3ccccc3)noc2C)C1 (stereo not drawn) | 10% | -17%
NS(=O)(=O)c1ccc(N2C(=O)CCCC2=O)cc1 | 11% | -24%
C[C@H](CO)N1C[C@H](C)[C@H](CN(C)C(=O)CC2CC2)Oc2cc(Br)ccc2S1(=O)=O | 0% | 4%
Cc1ccc(Cn2c(C(C)Nc3nc(-c4ccc(F)cc4)cs3)nc3cc(C(F)(F)F)ccc32)cc1 (stereo not drawn) | 3% | -17%
COCCNC(=O)C1(C)CCCN(C(=O)c2cc(C)oc2C)C1 (stereo not drawn) | 29% | -11%
CC(=O)N1C[C@@H](CO)[C@@H](N(C)C(=O)c2ccco2)C[C@H]1c1ccccc1 | 7% | -6%
CCN1C[C@@H]2[C@@H]3C(=O)N(Cc4ccccc4)C(=O)[C@@H]3[C@](C)(C1=O)N2C(=O)c1ccc(Cl)cc1 | -3% | -10%
CCOC(=O)Cc1ccc(Nc2nc(NCc3cccs3)nc3ccsc23)cc1 | -25% | -1%
CCCCCCCCN1C(=O)[C@H](CC(=O)NCC23CC4CC(CC(C4)C2)C3)C[C@@]2(C(=O)OC)CCCCC=C12 | 5% | 26%
CC(C)(C)OC(=O)N1CCc2onc(-c3ccc([N+](=O)[O-])cc3)c2C1=O | 9% | -16%
CN(C)CCNc1ncnc2c1ncn2[C@H]1CN(Cc2cccnc2)C[C@@H](CO)O1 | 3% | -25%
O=C(c1[nH]c(C(F)(F)F)nc1-c1ccccc1)N1CCN(C/C=C/c2ccccc2)CC1 | 6% | -10%
O=C(Cc1ccc(NC(=O)C2CCCN(C(=O)CCc3ccccc3)C2)cc1)Nc1cccc(C(=O)N2CCCC2)c1 (stereo not drawn) | -5% | ?
O=C1NCN(c2ccccc2)C12CCN(C(c1ccccc1)c1nnnn1-c1ccc3c(c1)OCCO3)CC2 (stereo not drawn) | 6% | 9%
O=C(Nc1cccc(Cl)c1Cl)c1csc([C@H]2C[C@H](O)[C@@H](CO)O2)n1 | -12% | 16%
CC(=O)Nc1sc(C)c(C)c1C(=O)OCC(=O)Nc1ccccc1C(F)(F)F | 10% | -9%
O=C(Cc1ccc(F)cc1)Nc1cc(S(=O)(=O)N2CCOCC2)ccc1N1CCCCC1 | 16% | -22%
O=C(NCCCCO)c1c(-c2ccccc2)oc2c1C(OCCCCCO)CCC2 (stereo not drawn) | 10% | -23%
CCNC(=O)C1(C)CCCN(Cc2cccc3ccccc23)C1 (stereo not drawn) | -6% | -23%
CC(C)(C)c1ccc(NC(=O)c2ccc3c(c2)S(=O)(=O)c2ccccc2C3=O)cc1 | -5% | -20%
CN(CCCn1cnc2c(OCc3ccccc3)ncnc21)Cc1ccco1 | 8% | 0%
CCCCNC(=O)C1(C)CCCCN1C(=O)c1ccno1 (stereo not drawn) | 5%[18.4 µM] | 2%
Cc1cccc(C)c1NC(=O)CNC(=O)CNC(=O)c1ccc2ccccc2c1 | -1% | -2%
COC(=O)C[C@@H]1C=C[C@H](NC(=O)Nc2ccc(F)cc2)[C@@H](CO)O1 | 4% | -19%

Continued (6 carried over from the part before).
SMILES | RE007 growth inh | 2A StopGo
CCNC(=O)C1(C)CCCN(Cc2cccc3ccccc23)C1 (stereo not drawn) | -6% | -23%
CC(C)(C)c1ccc(NC(=O)c2ccc3c(c2)S(=O)(=O)c2ccccc2C3=O)cc1 | -5% | -20%
CN(CCCn1cnc2c(OCc3ccccc3)ncnc21)Cc1ccco1 | 8% | 0%
CCCCNC(=O)C1(C)CCCCN1C(=O)c1ccno1 (stereo not drawn) | 5%[18.4 µM] | 2%
Cc1cccc(C)c1NC(=O)CNC(=O)CNC(=O)c1ccc2ccccc2c1 | -1% | -2%
COC(=O)C[C@@H]1C=C[C@H](NC(=O)Nc2ccc(F)cc2)[C@@H](CO)O1 | 4% | -19%
CC(=O)Nc1cc(-c2ccc(N(C)C)cc2)cn2c(-c3ccc(F)cc3)cnc12 | -6%[18.4 µM] | -4%
Cc1ccc(Cc2c(-c3ccc(Cl)cc3)nc3cc(C)c(Br)c(C)n23)cc1 | -19% | 0%
COc1ccc2c(c1)C(=O)O[C@@H](c1ccccc1)C[C@@H](O)C(=O)CC2 | 9% | -22%
N#Cc1ccc(-c2nc3ccc(Cl)cn3c2Cc2ccsc2)cc1 | -9% | 31%[activator]
CCCCC(=O)OC1CCC2C3CCc4cc(O)ccc4C3CCC12C (stereo not drawn) | -16% | -16%
COc1cc(OC)c(C(=O)Nc2cc(S(=O)(=O)N3CCOCC3)ccc2N2CCOCC2)cc1OC | 2% | 5%
CCCCCCN1C[C@H](O)[C@@H](n2cc(-c3ccc(F)cc3)nn2)C[C@@H]1c1ccccc1 | -7% | -25%
COc1ccccc1CC(O)CC1c2c(cc3c(c2OC)OCO3)CCN1C (stereo not drawn) | -11% | -17%
S=C1SCN(CCc2ccccc2)CN1CCc1ccccc1 | -5% | 0%
O=c1cc(CN(Cc2ccccc2)Cc2ccccc2)c2ccccc2o1 | 23% | -19%
CCc1nc2c(OCCOc3ccccc3)cccn2c1N(C)C(=O)C1CC1 | -29% | -4%
O=c1c(-c2ccccc2)nc2ccccc2n1C(CCc1ccccc1)c1nc2ccccc2[nH]1 (stereo not drawn) | 0% | -8%
COc1ccccc1-c1cc2c(c3c1ccn3C)C1CCC2O1 (stereo not drawn) | 2% | -21%
CCCNC(=O)C1(C)CCCN(Cc2ccccc2-c2ccccc2)C1 (stereo not drawn) | -29% | ?
CCOC(=O)C1=CCC(c2ccccc2)N(S(=O)(=O)c2ccccc2[N+](=O)[O-])C1 (stereo not drawn) | 9% | 17%
CCN(CC)C(=O)C1=C(C)N(Cc2ccc(OC)cc2)C(=O)C(CC(=O)NCc2cccc3ccccc23)C1 (stereo not drawn) | 1% | -26%
CC1(C(=O)NS(=O)(=O)c2cccc(C#N)c2)CCN1C(=O)Cc1ccc(Cl)cc1Cl (stereo not drawn) | -2% | -26%
COC(=O)C1C2OC(C(Br)C2Br)C1C(=O)OC (stereo not drawn) | 5% | -6%
COc1ccc(N2c3ccccc3CN(Cc3ccccc3)[C@@H](C)[C@H]2Cc2cccnc2)cc1 | 15% | -8%
C[C@@H](NC(=O)C[C@@H]1C[C@@H]2c3cc(NS(=O)(=O)c4ccc(F)cc4)ccc3O[C@@H]2[C@@H](CO)O1)c1ccccc1 | 17% | -4%
Cc1ccc(S(=O)(=O)Nc2ccc3c(c2)C(=O)N([C@@H](C)CO)C[C@@H](C)[C@@H](CN(C)C(=O)NC(C)C)OCCCC[C@H](C)O3)cc1 | 1% | -11%
COc1ccc(-c2[nH][nH]c(=O)c2NC(=O)c2ccccc2Br)cc1 | 9% | -8%
C=CCN1C[C@@H](C)N(C(c2ccc(C(=O)N(CC)CC)cc2)c2cccc(OC)c2)C[C@@H]1C (stereo partly drawn) | 0% | -30%
CCN(CC)S(=O)(=O)c1ccc(-c2cn3ccccc3n2)cc1 | -2% | 37%[activator]
Cc1ccc(Cc2c(-c3ccc(Cl)cc3)nc3c(C)cc(Br)cn23)cc1 | -7% | -21%

Next part, starting with the last 4 of the part before.
SMILES | RE007 growth inh | 2A StopGo
COc1ccc(-c2[nH][nH]c(=O)c2NC(=O)c2ccccc2Br)cc1 | 9% | -8%
C=CCN1C[C@@H](C)N(C(c2ccc(C(=O)N(CC)CC)cc2)c2cccc(OC)c2)C[C@@H]1C (stereo partly drawn) | 0% | -30%
CCN(CC)S(=O)(=O)c1ccc(-c2cn3ccccc3n2)cc1 | -2% | 37%[activator]
Cc1ccc(Cc2c(-c3ccc(Cl)cc3)nc3c(C)cc(Br)cn23)cc1 | -7% | -21%
Cc1ccc(C(O)c2ncc(-c3cccc(C(F)(F)F)c3)[nH]2)cc1 (stereo not drawn) | -23%[18.4 µM] | 8%
CCCC(=O)N1CCC1(C)C(=O)NCc1ccccc1SC (stereo not drawn) | -14% | -15%
COc1ccc(C(O)c2ncc(-c3ccccc3)[nH]2)c(OC)c1 (stereo not drawn) | -20%[18.4 µM] | 18%
OC(c1ccc(F)c(F)c1)c1nc(-c2ccccc2)cs1 (stereo not drawn) | -5% | 4%
COC(=O)[C@]12CCCCC=C1N(Cc1ccco1)C(=O)[C@H](CC(=O)NCCc1ccccc1OC)C2 | -1% | -13%
Cc1cccnc1NC(=O)c1ccc(S(=O)(=O)N2CCCC2)cc1 | 1% | -3%
CC(C)C[C@@H]1COc2cc(N3CCC[C@@H]3CO)ccc2S(=O)(=O)N1 | 8% | -18%
Cc1ccc([C@H]2C(C(=O)O)=CCN2S(=O)(=O)c2ccc(C)cc2)cc1 | 7% | -12%
CSc1nc2ccc(NC(=O)CS(=O)(=O)c3ccccc3)cc2s1 | -11% | 96%[activator]
NC(=O)CC1(c2ccccc2)CCCCC1 | 8% | -8%
COc1ccc(OCCN2CCCC2)cc1Nc1nnc(Cl)c(Nc2ccccc2S(C)(=O)=O)n1 | ? | ?
CC(=O)N(C)C[C@H]1Oc2cc(Br)ccc2S(=O)(=O)N([C@H](C)CO)C[C@@H]1C | 22% | -6%
COc1ccc([C@H]2CC(=O)C[C@@H](CCn3cc(CCc4ccccc4)nn3)O2)cc1 | 0% | -21%
c1cc(-c2cnc3cccnn23)c2cccnc2c1 | -14% | -16%
CC1(C(=O)Nc2ccc3c(c2)OCO3)CCN1C(=O)c1ccccc1 (stereo not drawn) | 2%[18.4 µM] | 9%
O=S(=O)(c1ccc(Cl)cc1)N1Cc2cc(Br)ccc2-n2nncc2C1 | 8% | -25%
C=C(C)Cn1c2ccc(NC(=O)NCc3ccccc3)cc2c(=O)n1C | 10%[18.4 µM] | 27%
COCCNC(=O)C1(C)CCN(C(=O)c2sccc2C)C1 (stereo not drawn) | 9% | -25%
CC(C)C[C@H]1CNC(=O)C(=O)N1C[C@H](Cc1ccc(O)cc1)NC(=O)CC12CC3CC(CC(C3)C1)C2 | -3% | -15%
CCN1C(=O)[C@H]2[C@@H](c3ccc(OC)cc3)N[C@]3(CCCN(Cc4ccc(C(F)(F)F)cc4)C3=O)[C@H]2C1=O | 1% | ?
